Compound activity as filed in PubChem.
T cruzi inh = T. cruzi replication inhibition. T. cruzi beta-gal in NIH3T3, luminescence, 90 h. inhibition, % (test concentration not listed). 1.4% of 300,000 active. AID 1885;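 active = mean inhibition across valid replicates above about 55%, limit read from the data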;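 note: signal also drops with host cell toxicity which is not excluded here; 0% = plate median of DMSO wells and 100% = zero luminescence signal; higher percent means less beta-gal luminescence so fewer parasites; stock transfer was 50 nL into about 50 µL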
Bfl-1 A1 inh = inhibitors of the anti-apoptotic protein A1, read as caspase activation; caspase activation, % (test concentration not listed); MEF A1-2A-BIM cells, Caspase-Glo 3/7 luminescence, 3 h; percent of clofoctol response, vehicle zero; AID 2462; 0.066% of 330,000 active;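 active = over half of replicate activation scores above 10%, or exactly half above 10 with the replicate mean above 10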;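 note: wells of about 30 µL received 50 nL stock; many hits fall short of the cut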
Ecoli rRNA inh = inhibits bacterial ribosomal RNA function over humanized ribosomes | E. coli WT GFP vs humanized-ribosome RFP mutants, fluorescence, 24 h; stronger effect = lower value; DMSO median 0, no signal -100 | GFP signal change (wild-type ribosome), % (concentration not given with the values) | 1.6% of 350,000 active | AID 720706;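 active = significant combined selectivity score with lowered wild-type GFP, culture density cut under 30%, mutant RFP and density less affected; inactive = any of these conditions unmet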; note: one replicate is shown; some compounds called inactive have numbers as strong as hits
Beta apoptosis = blocks beta cell apoptosis; INS-1E cytokine-induced death, ATP luminescence, 48 h; percent of positive-control rescue, neutral wells zero; protection from apoptosis, % (test concentration not listed); 0.8% of 300,000 active; AID 435005;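 active = all replicates at 75% or more, or half of them and the mean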;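 note: 0% = cytokine-treated negative control wells and 100% = positive control rescue; higher means more ATP so stronger rescue from cytokine killing; wells of about 40 µL received 100 nL stock; the first replicate is given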
AF4-AF9 inh = inhibitors of human MLL-AF4/AF9 interaction; 0.47% of 350,000 active; AlphaScreen, biotin-AF4 peptide binding to FLAG-AF9; inhibition, % at 10 µM;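 active = every replicate reaching a set inhibition limit, whatever the replicate mean, cut at about 25% in these data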;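 note: 0% = plate neutral control median and 100% = total signal loss; the record names both 10 and 1 µM as test concentration; the first replicate is given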
Target sequence (P42568 whole entry, looked up): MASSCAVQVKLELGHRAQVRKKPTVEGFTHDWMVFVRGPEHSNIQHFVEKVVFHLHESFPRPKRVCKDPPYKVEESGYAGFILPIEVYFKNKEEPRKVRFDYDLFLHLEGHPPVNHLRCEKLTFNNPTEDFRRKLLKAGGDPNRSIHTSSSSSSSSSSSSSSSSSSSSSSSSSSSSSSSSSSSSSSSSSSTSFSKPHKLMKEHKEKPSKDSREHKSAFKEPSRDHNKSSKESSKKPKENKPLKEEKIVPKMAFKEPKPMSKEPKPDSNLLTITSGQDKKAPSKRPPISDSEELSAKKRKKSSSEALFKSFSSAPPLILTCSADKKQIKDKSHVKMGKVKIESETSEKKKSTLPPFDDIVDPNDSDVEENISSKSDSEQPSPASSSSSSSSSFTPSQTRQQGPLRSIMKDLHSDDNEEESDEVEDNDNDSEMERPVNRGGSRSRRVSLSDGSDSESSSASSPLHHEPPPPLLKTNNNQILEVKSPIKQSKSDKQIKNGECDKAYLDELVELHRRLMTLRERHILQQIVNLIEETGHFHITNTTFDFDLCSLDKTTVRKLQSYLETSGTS
FGF22 binding = binders of recombinant human FGF22 by thermal shift; calls only at 9.99 µM; Q9HCT0; SYPRO orange fluorescence; percent of sucrose octasulfate shift, DMSO zero; 1.5% of 340,000 active; AID 651658;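 active = melting point raised past a set limit in the mean and every replicate; three in four hits are not shown here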
Target sequence (Q9HCT0 whole entry, looked up): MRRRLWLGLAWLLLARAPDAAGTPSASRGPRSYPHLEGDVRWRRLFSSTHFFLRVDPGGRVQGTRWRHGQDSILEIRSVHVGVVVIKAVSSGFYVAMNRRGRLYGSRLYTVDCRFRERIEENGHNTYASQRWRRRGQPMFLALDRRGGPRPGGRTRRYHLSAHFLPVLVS
UCH37 inh = blocks the human deubiquitinase UCH37; Q9Y5K5; purified proteasome/UCH37, Ub-AMC cleavage fluorescence; inhibition, % (no concentration beside the values); 0.33% of 330,000 active; AID 588478;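 active = mean of two replicates above 20%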;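 note: 0% = compound-free wells with enzyme and 100% = wells lacking proteasome; stock transfer was 100 nL into about 20 µL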
Target sequence (Q9Y5K5 whole entry, looked up): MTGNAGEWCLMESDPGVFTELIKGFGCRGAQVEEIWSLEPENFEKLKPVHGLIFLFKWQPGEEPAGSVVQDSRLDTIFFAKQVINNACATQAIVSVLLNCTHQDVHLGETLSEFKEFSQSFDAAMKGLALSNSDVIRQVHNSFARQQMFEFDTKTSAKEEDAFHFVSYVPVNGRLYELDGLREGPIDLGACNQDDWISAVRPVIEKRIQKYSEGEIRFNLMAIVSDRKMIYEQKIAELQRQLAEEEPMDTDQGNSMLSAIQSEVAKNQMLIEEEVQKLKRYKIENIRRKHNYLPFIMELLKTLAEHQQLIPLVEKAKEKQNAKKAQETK
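Signal – fluorescence, ex 355 nm, em 460 nm · System – Proteasome-bound UCH37 · Input – 0.15 nM proteasome as dispensed · Timing – 30 min preincubation with enzyme, 25 min cleavage at room temperature · Read-out basis – percent inhibition of cleavage signal versus uninhibited and no-proteasome wells · Medium – Tris-HCl pH 7.4 with ATP-MgCl2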
E coli growth = E. coli growth inhibition; 0.21% of 330,000 active; AID 1053175; OD600 absorbance (test concentration not listed); Escherichia coli growth, OD600, 23 h; stronger effect = lower value;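 active = OD600 absorbance below the run mean of sample wells minus 3.6 SD, in any replicate, cut at about 0.56 in these data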;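 note: stock transfer was 300 nL into about 60 µL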
Ecoli rRNA inh OD600 = recorded beside Ecoli rRNA inh, whose call it bears; OD600 change, %; measured here: OD600 growth;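 optical density of the mix in the first replicate; 0 = DMSO median and -100 = no signal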
Ecoli rRNA inh RFP = recorded beside Ecoli rRNA inh, whose call it bears; RFP signal change, %; measured here: RFP humanized mutant strains;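 first replicate; 0 = DMSO median and -100 = no signal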
* = called active by the depositor.

The first 2 records, to show the layout:
For CCOc1cccc(/C=C/c2ccc3cccc(O)c3n2)c1O the results were T cruzi inh 38, Bfl-1 A1 inh -6.4, Ecoli rRNA inh -54, Beta apoptosis 36, AF4-AF9 inh 0.2, FGF22 binding inactive, UCH37 inh -2.3, E coli growth 0.67, Ecoli rRNA inh OD600 -78 and Ecoli rRNA inh RFP -18.
Screening CCOC(=O)c1ccc(OCCOc2ccccc2C)cc1 returned T cruzi inh -5, Bfl-1 A1 inh -0.9, Ecoli rRNA inh 1, Beta apoptosis 3, AF4-AF9 inh -15, FGF22 binding inactive, UCH37 inh 4.1, E coli growth 0.67, Ecoli rRNA inh OD600 -1 and Ecoli rRNA inh RFP -0.1.

The whole of this part (from the top)
For CCOc1cccc(/C=C/c2ccc3cccc(O)c3n2)c1O the results were T cruzi inh 38, Bfl-1 A1 inh -6.4, Ecoli rRNA inh -54, Beta apoptosis 36, AF4-AF9 inh 0.2, FGF22 binding inactive, UCH37 inh -2.3, E coli growth 0.67, Ecoli rRNA inh OD600 -78 and Ecoli rRNA inh RFP -18.
Screening CCOC(=O)c1ccc(OCCOc2ccccc2C)cc1 returned T cruzi inh -5, Bfl-1 A1 inh -0.9, Ecoli rRNA inh 1, Beta apoptosis 3, AF4-AF9 inh -15, FGF22 binding inactive, UCH37 inh 4.1, E coli growth 0.67, Ecoli rRNA inh OD600 -1 and Ecoli rRNA inh RFP -0.1.
Screening CCCN1CCc2[nH]c(=S)[nH]c(=O)c2C1 returned T cruzi inh 5, Bfl-1 A1 inh -0.1, Ecoli rRNA inh 6, Beta apoptosis -3, AF4-AF9 inh 12, FGF22 binding inactive, UCH37 inh 2.6, E coli growth 0.65, Ecoli rRNA inh OD600 4 and Ecoli rRNA inh RFP -1.5.
Screening CCC1=Nc2ccc(Br)cc2C(c2ccccc2)N1CC(=O)OC (centres undefined) returned T cruzi inh -4, Bfl-1 A1 inh 0.8, Beta apoptosis 0, UCH37 inh 1.6 and E coli growth 0.65.
`CCCN(C(=O)CSCC(=O)Nc1ccc(OC)cc1)c1c(N)n(Cc2ccccc2)c(=O)[nH]c1=O` gave T cruzi inh -2, Bfl-1 A1 inh -0.8, Ecoli rRNA inh 7, AF4-AF9 inh 0.9, FGF22 binding inactive, UCH37 inh -0.7, E coli growth 0.6, Ecoli rRNA inh OD600 8 and Ecoli rRNA inh RFP -2.1.
C=CCN1C(=O)C(CC(=O)O)S/C1=N/N=C/c1ccc(N(CC)CC)cc1 (centres undefined) was read as Bfl-1 A1 inh 0.3, Ecoli rRNA inh -13, Beta apoptosis -2, AF4-AF9 inh 3.8, FGF22 binding inactive, Ecoli rRNA inh OD600 -13 and Ecoli rRNA inh RFP -0.7.
`CC(C)C(=O)Nc1cccc(NC(=O)c2ccc(Cl)cc2Cl)c1` gave T cruzi inh -13, Bfl-1 A1 inh -0.8, Beta apoptosis 1, UCH37 inh 3.4 and E coli growth 0.65.
For O=C(NN1C(=O)c2ccccc2C1=O)C1CC2CCC1C2 (centres undefined) the results were T cruzi inh -13, Bfl-1 A1 inh -0.1, Ecoli rRNA inh 13, Beta apoptosis 0, AF4-AF9 inh -15, FGF22 binding inactive, UCH37 inh 3.3, E coli growth 0.64, Ecoli rRNA inh OD600 0 and Ecoli rRNA inh RFP 8.4.
For c1ccc(-c2ccccc2OCCn2cncn2)cc1 the results were T cruzi inh 0, Bfl-1 A1 inh -0.8, Beta apoptosis 0, UCH37 inh 5.1 and E coli growth 0.76.
O=C1CC(SCCO)C(=O)N1c1ccccc1 (centres undefined) was read as T cruzi inh -6, Bfl-1 A1 inh -1.0, Ecoli rRNA inh 15, Beta apoptosis 1, AF4-AF9 inh 2.9, FGF22 binding inactive, UCH37 inh -0.9, E coli growth 0.69, Ecoli rRNA inh OD600 18 and Ecoli rRNA inh RFP -8.2.
Cc1cccc(CNC(=O)C2CCC(=O)N(Cc3ccccc3F)C2)n1 (centres undefined) was read as T cruzi inh 8, Ecoli rRNA inh 7, AF4-AF9 inh -0.5, FGF22 binding inactive, UCH37 inh 3.0, E coli growth 0.64, Ecoli rRNA inh OD600 16 and Ecoli rRNA inh RFP 1.4.
For CC(=O)Nc1ccc(Cc2ccncc2)cc1 the results were T cruzi inh -10, Bfl-1 A1 inh 0.7, UCH37 inh 1.1 and E coli growth 0.7.
For CCCn1c(SCC(=O)Nc2ccc(NC(=O)CC)cc2)nc2c1c(=O)n(C)c(=O)n2C the results were T cruzi inh 3, Bfl-1 A1 inh -1.0, Ecoli rRNA inh 4, Beta apoptosis 0, AF4-AF9 inh 1.5, FGF22 binding inactive, UCH37 inh -1.3, E coli growth 0.68, Ecoli rRNA inh OD600 -6 and Ecoli rRNA inh RFP -0.8.
For CCCn1nnnc1SCC(=O)NCc1ccccc1 the results were T cruzi inh 1, Bfl-1 A1 inh 0.3, Beta apoptosis -2, UCH37 inh 0.0 and E coli growth 0.7.
`O=C(NC1=NCCS1)C1CC(=O)N(c2ccc(Cl)cc2)C1` (centres undefined) gave T cruzi inh -8, Bfl-1 A1 inh 0.6, Ecoli rRNA inh 1, Beta apoptosis -10, AF4-AF9 inh -0.8, UCH37 inh -0.1, E coli growth 0.67, Ecoli rRNA inh OD600 6 and Ecoli rRNA inh RFP 1.9.
`O=C(CNS(=O)(=O)/C=C/c1ccccc1)OCC(=O)N1CCC(Cc2ccccc2)CC1` gave T cruzi inh 6, Bfl-1 A1 inh 0.5, Beta apoptosis 3, UCH37 inh 2.4 and E coli growth 0.67.
For COc1ccc(/C=C/C(=O)NC(=S)NNC(=O)c2ccco2)cc1 the results were T cruzi inh -1, Bfl-1 A1 inh -0.6, Beta apoptosis 3, UCH37 inh -1.3 and E coli growth 0.73.
Screening CCOC(=O)CCn1cc(F)c(=O)n(Cc2ccccc2)c1=O returned T cruzi inh -2, Bfl-1 A1 inh 0.1, Beta apoptosis -11, UCH37 inh -1.5 and E coli growth 0.73.
For COCCN(C(=O)c1ccc(OC2CCN(S(=O)(=O)N(C)C)CC2)cc1)C(C)C the results were T cruzi inh -15, Bfl-1 A1 inh 0.9, Ecoli rRNA inh 6, AF4-AF9 inh 2.2, FGF22 binding inactive, UCH37 inh 0.9, E coli growth 0.7, Ecoli rRNA inh OD600 4 and Ecoli rRNA inh RFP 1.5.
O=C(Cc1ccc(F)cc1)N[C@@H]1c2ccccc2CC[C@H]1OCc1ccccc1 was read as Ecoli rRNA inh 15, AF4-AF9 inh -0.9, FGF22 binding inactive, UCH37 inh 3.1, E coli growth 0.72, Ecoli rRNA inh OD600 15 and Ecoli rRNA inh RFP -0.2.
CC(=O)c1sc(NC(=O)C2CC(=O)N(Cc3ccco3)C2)nc1-c1ccccc1 (centres undefined) was read as T cruzi inh 2, Bfl-1 A1 inh -0.9, Ecoli rRNA inh -6, Beta apoptosis 0, AF4-AF9 inh -0.9, FGF22 binding inactive, UCH37 inh 4.6, E coli growth 0.68, Ecoli rRNA inh OD600 -4 and Ecoli rRNA inh RFP 0.5.
For OCC[C@@H]1C[C@H](O)[C@@H](O)[C@]2(CCCc3ccccc3O2)O1 the results were T cruzi inh 3, Bfl-1 A1 inh -0.2, Ecoli rRNA inh 7, Beta apoptosis 0, AF4-AF9 inh -3.1, FGF22 binding inactive, UCH37 inh 3.5, Ecoli rRNA inh OD600 2 and Ecoli rRNA inh RFP 2.3.
O=C(CSc1nnnn1-c1cccc(F)c1)NC1CCCCC1 was read as Bfl-1 A1 inh 0.4, Ecoli rRNA inh 5, Beta apoptosis -2, AF4-AF9 inh -6.1, FGF22 binding inactive, UCH37 inh 5.4, E coli growth 0.68, Ecoli rRNA inh OD600 6 and Ecoli rRNA inh RFP -2.6.
Brc1ccc(-c2nc(-c3ccccc3)no2)o1 was read as T cruzi inh -6, Bfl-1 A1 inh -4.9, Beta apoptosis 9, UCH37 inh -0.3 and E coli growth 0.73.
CCCCCOc1ccc(Cl)cc1CN1CCOCC1 was read as T cruzi inh 17, Bfl-1 A1 inh 0.5, Beta apoptosis -4, UCH37 inh 0.9 and E coli growth 0.66.
C=CCOc1ccccc1CN1CCCCCC1 was read as T cruzi inh -8, Bfl-1 A1 inh 1.0, Ecoli rRNA inh 9, Beta apoptosis -4, AF4-AF9 inh 0.2, FGF22 binding inactive, UCH37 inh 2.0, E coli growth 0.65, Ecoli rRNA inh OD600 9 and Ecoli rRNA inh RFP 1.0.
Screening O=S(=O)(NN=C1CCCCC1)c1ccccc1 returned T cruzi inh -16, Bfl-1 A1 inh 1.3, Ecoli rRNA inh 0, Beta apoptosis -6, AF4-AF9 inh 1.7, FGF22 binding inactive, UCH37 inh 3.2, E coli growth 0.69, Ecoli rRNA inh OD600 5 and Ecoli rRNA inh RFP 0.6.
COc1ccc(C(=O)NC(=S)N2CCOCC2)cc1Br was read as T cruzi inh -7, Bfl-1 A1 inh 0.0, Ecoli rRNA inh 9, Beta apoptosis 2, AF4-AF9 inh 2.3, FGF22 binding inactive, UCH37 inh 2.0, E coli growth 0.72, Ecoli rRNA inh OD600 6 and Ecoli rRNA inh RFP 1.2.
CCc1c(C(=O)N2CCCN(C)CC2)csc1C was read as T cruzi inh -4, Bfl-1 A1 inh 0.3, Ecoli rRNA inh 13, Beta apoptosis -6, AF4-AF9 inh -8.6, FGF22 binding inactive, UCH37 inh -0.2, E coli growth 0.67, Ecoli rRNA inh OD600 15 and Ecoli rRNA inh RFP 1.7.
COc1ccc(COCC(O)CN(Cc2ccccc2)C(C)C)cc1OC (centres undefined) was read as T cruzi inh -17, Bfl-1 A1 inh 0.3, Ecoli rRNA inh 13, Beta apoptosis -3, AF4-AF9 inh -2.0, FGF22 binding inactive, UCH37 inh 1.3, E coli growth 0.63, Ecoli rRNA inh OD600 19 and Ecoli rRNA inh RFP -0.3.
CC(=O)N/C(=C\c1ccccc1)C(=O)OCC(=O)NC1CCCC1 was read as T cruzi inh -3, Bfl-1 A1 inh 1.5, Ecoli rRNA inh 6, Beta apoptosis -6, AF4-AF9 inh -9.6, FGF22 binding inactive, UCH37 inh 1.6, E coli growth 0.62, Ecoli rRNA inh OD600 5 and Ecoli rRNA inh RFP 7.2.
O=C(CSc1nnc(-c2ccco2)o1)c1ccc(O)cc1O was read as T cruzi inh -16, Bfl-1 A1 inh -0.9, Beta apoptosis 0, AF4-AF9 inh 1.0, FGF22 binding inactive, UCH37 inh -3.8 and E coli growth 0.7.
CC(=O)c1ccc(-c2nnc(CCC(=O)N(C)Cc3cnc4ccccn34)o2)s1 was read as T cruzi inh -4, Bfl-1 A1 inh 1.9, Ecoli rRNA inh 15, AF4-AF9 inh 1.5, FGF22 binding inactive, UCH37 inh 7.0, E coli growth 0.65, Ecoli rRNA inh OD600 10 and Ecoli rRNA inh RFP 1.2.
`CN(CC(=O)Nc1ccc(Cl)cc1)C1=NS(=O)(=O)c2ccccc21` gave Bfl-1 A1 inh 0.6, Ecoli rRNA inh 3, Beta apoptosis -3, AF4-AF9 inh 1.2, FGF22 binding inactive, UCH37 inh -1.4, E coli growth 0.66, Ecoli rRNA inh OD600 7 and Ecoli rRNA inh RFP 1.6.
Screening CC1(C)Cc2cccc(Oc3ccc(S(=O)(=O)N4CCCCC4)cn3)c2O1 returned T cruzi inh 8, Bfl-1 A1 inh 0.5, Ecoli rRNA inh -11, Beta apoptosis 4, AF4-AF9 inh -2.4, FGF22 binding inactive, UCH37 inh 1.1, E coli growth 0.71, Ecoli rRNA inh OD600 -12 and Ecoli rRNA inh RFP -0.7.

An excerpt; count on the stated rates, not on these rows.
